# ugtP null kill = kills S. aureus RN4220 lacking UgtP | S. aureus RN4220 ugtP deletion, OD600 growth, 16 h; some inactives read as strong as hits | growth inhibition, % (no concentration beside the values) | 0.54% of 330,000 active;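 active = z-score under -3 and OD600 up to 0.15 on both plates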;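 note: plate controls were untreated wells for no effect and antibiotic for full effect; wells of about 80 µL received 100 nL stock; the first replicate is given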
# BJeLR viability = BJeLR cell viability loss; BJeLR (HRASV12) viability, CellTiter-Glo ATP luminescence, 48 h; reference of the scale not given here; inhibition, % (concentration not given with the values); 0.17% of 300,000 active; AID 1554;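 active = replicate mean above 50%; inconclusive = above 50% but judged a plate artefact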;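 note: 50 nL library stock added to about 25 µL; numbers are from one replicate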
# Autofluor counter = flagged as autofluorescent in microsphere protease counterscreen; AID 624483; fluorescence intensity (no concentration beside the values); 3.1% of 360,000 active; compound autofluorescence counterscreen, microsphere flow cytometry; stronger effect = higher value;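 active = at least 3 SD above the mean of all compounds, about 16000 in these data; inconclusive = too few beads counted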;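 note: 100 nL of 1 mM stock went into each well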
# PrP UTR inh = inhibition of PrP 5' UTR reporter expression; cell-based PrP 5' UTR mRNA reporter, plate reader; inhibition, % (test concentration not listed); 0.35% of 340,000 active; AID 488862;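 active = every replicate at 50% or more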;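 note: 0 = median of the neutral control wells; tested in H4 reporter cells; numbers are from one replicate; inactives centre near -14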
# RN4220 kill = S. aureus RN4220 growth inhibition. OD600, 16 h. inhibition, % (no concentration beside the values). 0.33% of 330,000 active. AID 1259311;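 active = z-score of -3 or lower and OD600 up to 0.18 on both plates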;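 note: plate controls were untreated cells for no effect and reference antibiotic for full effect; stock transfer was 100 nL into about 80 µL; one replicate is shown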
# Mtb hypoxia inh = reduces hypoxia-regulated biosensor signal in M. tuberculosis; M. tuberculosis hypoxia-regulated fluorescent reporter, fluorescence; fluorescence inhibition, % (no concentration beside the values); 0.1% of 300,000 active;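 active = 35 to 45% if threefold the growth effect, above 45% if 1.5-fold the growth effect; inactive = the rest, general growth blockers included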;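 note: wells of about 50 µL received 100 nL stock; 0% = vehicle wells and 100% = reference inhibitor wells; whole bacteria with a GFP reporter of the hypoxia response; strong numbers were not always called active; many hits fall short of the cut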
# Mtb hypoxia inh growth = recorded beside Mtb hypoxia inh, whose call it bears; growth inhibition, %; measured here: M. tuberculosis growth (absorbance);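 0% = vehicle and 100% = reference antibiotic; read after six days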
# * = called active by the depositor; u = inconclusive; x = no result given.
SMILES,ugtP null kill,BJeLR viability,Autofluor counter,PrP UTR inh,RN4220 kill,Mtb hypoxia inh,Mtb hypoxia inh growth
CC(=O)C1C(c2ccc([N+](=O)[O-])cc2)C2C(C)=NN=C2CC1(C)O (stereo not drawn),8,-4,4235,-14,0.8,16,11
O=C(Nc1ccc(Cl)c(Cl)c1)Nc1ccc([N+](=O)[O-])cn1,x,-1,3778,3,x,x,x
COc1ccc(CCN2CC(C(=O)NCCN3CCNC3=O)CCC2=O)cc1 (stereo not drawn),-3,8,5418,-27,-3.6,-3,-6
Cc1cnc(C(=O)OCC(=O)N2CCN(C(=O)c3ccco3)CC2)cn1,5,2,6261,-41,2.4,3,5
O=C(Nc1ccncc1)c1ccccc1Cl,7,-5,3164,-9,1.6,11,2
CC(C)c1ccc2[nH]c3c(c2c1)CCCC3=NNC(=O)c1ccncc1,-8,x,x,x,-1.3,4,5
COc1cc(/C=C(\C#N)c2nc3ccccc3s2)cc([N+](=O)[O-])c1O,82,1,2776,-17,66,x,x
CC1CCc2nc(N)c(C#N)c(-c3ccncc3)c2C1 (stereo not drawn),13,-9,7096,0,8.7,11,12
CCOC(=O)CNC=C(C(=O)OCC)C(=O)OCC,-1,-7,2413,-7,2.3,x,x
CSc1nccc(Nc2ccccc2)c1C#N,-4,14,3464,-24,1.8,x,x
CCCCC1C(=O)CCC2C(CC=CCCCC(=O)O)C(=O)CC12 (stereo not drawn),23,x,x,x,2.8,7,-2
COc1ccc(CCNC2CC(=O)N(C)C2=O)cc1OC (stereo not drawn),2,-4,24224*,-3,8.1,8,7
COCCNCCCOc1ccc(C(C)(C)c2ccccc2)cc1,0,6,6921,-4,3.6,17,9
COc1cccc(CNC(=O)CNS(=O)(=O)c2ccc(Br)s2)c1,-2,-2,4187,1,-5.0,4,3
Cc1cccc(OCCC(=O)Nc2nnc(C)s2)c1,17,0,4519,-10,3.0,7,3
CC(C)CNC(=O)NC(=O)COC(=O)C1CSC2(c3ccc(F)cc3)CCC(=O)N12 (stereo not drawn),-5,2,1951,-8,5.1,6,14
COc1ccc(NC(=O)c2cc3ccccc3o2)cc1,-6,1,2252,-85,-5.3,9,14
COc1cc(C(CCN2CCOCC2)c2c(OC)cc(OC)c3c(C)cc(=O)oc23)cc(OC)c1OC (stereo not drawn),-6,6,3820,-11,1.1,0,5
Cc1ccc(C(=O)CSc2nc(N)cc(=O)[nH]2)cc1,-1,-10,8777,-25,0.8,6,3
Cc1ccc(CNC(=O)CSc2nnc3c(n2)[nH]c2ccc(F)cc23)cc1,13,8,5584,-4,4.1,15,-1
COc1ccccc1/C=C(\NC(=O)c1ccc(OC)c(OC)c1)C(=O)Nc1ccc([N+](=O)[O-])cc1,-2,0,2622,-13,3.3,-3,1
O=C(COC(=O)/C=C/c1cccc(C(F)(F)F)c1)NC(=O)NC1CCCC1,2,x,4062,-45,0.7,6,-1
CC1Cc2ccccc2N1c1nc(C2CC2)nc2c1nnn2Cc1ccccc1 (stereo not drawn),55,0,2319,-13,-1.3,x,x
Cc1cccc(OCCCC(=O)Nc2nccs2)c1C,-3,4,5533,-17,2.0,-6,9
NCCSc1c(-c2ccc(F)cc2)[nH]c2ccccc12,-3,-6,4851,-24,0.0,2,-8
CCCCCn1cnnc1SCC(=O)c1ccc2c(c1)OCO2,-14,x,3288,-9,5.0,-1,-6
CCCNC(=O)c1noc2c1CCc1cc(OC)ccc1-2,6,-6,4047,-43,2.5,12,2
Cn1cc2cccc([N+](=O)[O-])c2n1,12,6,2256,-18,7.5,14,8
Cc1nc(SCC(=O)NC2CCS(=O)(=O)C2)c2c3c(sc2n1)CCC3 (stereo not drawn),-3,x,3903,-19,2.4,13,-1
COc1cccc(C=NNC(=O)CNC(=O)c2ccc(S(=O)(=O)N3CCOCC3)cc2)c1OC,9,x,x,x,4.3,-2,2
CCCC(=O)Nc1nnc(C2CCCO2)s1 (stereo not drawn),3,2,4753,-10,2.6,-8,8
COc1cnc(-c2ccccn2)[nH]c1=O,7,2,2127,-6,4.1,8,8
Nc1ccc(S(=O)(=O)Nc2nccs2)cc1N=Nc1ccccc1[N+](=O)[O-],-21,x,4296,-22,8.7,11,13
O=C1C2C3C=CC(C3)C2C(=O)N1Cc1ccc(CN2C(=O)C3C4C=CC(C4)C3C2=O)cc1 (stereo not drawn),7,-9,12496,-23,2.4,14,8
Cc1ccc(O)c(Nc2ncnc3ccc([N+](=O)[O-])cc23)c1,4,-2,3544,-13,4.1,-12,7
CCN(CC)S(=O)(=O)c1ccc(-c2ccc(S(=O)(=O)N(CC)CC)cc2)cc1,-1,11,4060,-7,2.5,1,6
O=C(NCC(c1ccco1)N1CCN(c2ccccc2F)CC1)C(=O)NC1CCCCC1 (stereo not drawn),12,10,4311,-24,3.2,1,1
CC(C)(C)NC(=O)C(c1ccccn1)N(C(=O)C1CSC(=O)C1)c1cccc(F)c1 (stereo not drawn),4,-2,4191,-20,-0.2,-5,5
Cc1nc2ccccc2c(=O)n1/N=C/c1ccc(C(C)C)cc1,x,-3,3899,-20,x,x,x
CCNC(=S)N1CCc2ccccc2C1,5,2,4003,-26,-0.5,3,5

# By substructure, the compounds so far with a Cl atom (2)
SMILES,ugtP null kill,BJeLR viability,Autofluor counter,PrP UTR inh,RN4220 kill,Mtb hypoxia inh,Mtb hypoxia inh growth
O=C(Nc1ccc(Cl)c(Cl)c1)Nc1ccc([N+](=O)[O-])cn1,x,-1,3778,3,x,x,x
O=C(Nc1ccncc1)c1ccccc1Cl,7,-5,3164,-9,1.6,11,2

# Further records:
SMILES,ugtP null kill,BJeLR viability,Autofluor counter,PrP UTR inh,RN4220 kill,Mtb hypoxia inh,Mtb hypoxia inh growth
COc1cc(C(=O)OCC(=O)c2cc(C)n(CC3CCCO3)c2C)cc(OC)c1C (stereo not drawn),4,x,4316,-14,1.9,6,2
CC(NC(=O)c1ccccc1F)c1nnc(SCC(=O)Nc2nccs2)n1C (stereo not drawn),6,-4,5253,-11,2.4,5,5
Nc1ncnc2c1ncn2[C@@H]1O[C@H](CNS(=O)(=O)c2cc3ccccc3s2)[C@@H](O)[C@H]1O,13,x,3973,7,3.4,-6,4
CS(=O)(=O)N(CC(=O)N1CCCC1)c1ccc(Cl)c(Cl)c1,-1,4,9056,-16,1.0,-3,-7
CC(=O)CC(=O)C1C(=O)N(C)C(=O)N(C)C1=O,3,-7,3205,-22,7.4,17,8
CCOc1ccc(N=C(NN)c2ccc3ccccc3n2)cc1,17,1,2182,13,1.8,6,0
CCOc1c(Br)cc(Br)cc1/C=C1\SC(N)=NC1=O,7,5,3119,-13,3.9,14,5
CCOC(=O)Cn1c(=O)oc2cc(S(=O)(=O)Nc3cccc(C)c3)ccc21,11,1,4258,-19,6.4,3,2
O=S(=O)(N=C(c1ccccc1)N1CCOCC1)c1ccc(Br)cc1,-7,x,x,x,3.4,-3,0
O=C(NCc1nnc(SCC(=O)N2CCCCC2)o1)c1c(F)cccc1F,-1,5,5439,-21,-0.1,2,2
C=C(C)Cn1c(Sc2nnc(C)s2)nc2c1c(=O)[nH]c(=O)n2C,-3,5,3724,-1,6.0,13,13
COc1ccc(S(=O)(=O)O/N=C2\CCSc3ccc(C)cc32)cc1,x,1,21946*,-43,x,x,x
CC(C)Cc1nnc(NC(=O)c2ccc([N+](=O)[O-])cc2)s1,-23,7,u,-19,6.5,3,6
COc1ccc(S(=O)(=O)N2CCNCC2)cc1OC,-1,5,2609,-3,2.3,3,0
CC(C)OCC1CO1 (stereo not drawn),11,x,5775,4,5.0,11,1
COc1ccc(S(=O)(=O)Nc2noc3ccccc23)cc1,7,3,3954,-12,4.2,5,7
O=C(c1cc2ccccc2oc1=O)N(Cc1ccco1)Cc1cccs1,2,9,10617,-9,7.1,4,5
O=C(NCc1ccccn1)C(=O)Nc1nc(C23CC4CC(CC(C4)C2)C3)cs1,3,-1,4429,-6,-16,3,6
Cc1cccc(OC(C)C(=O)NCc2ccc(S(N)(=O)=O)cc2)c1 (stereo not drawn),3,8,2174,-26,2.5,10,5
CCCCCCCC(=O)NNC(=O)CCC(=O)O,12,-7,2503,-23,3.0,22,-21
O=C(Nc1ccc(N2CCOCC2)c(Cl)c1)c1ccc(S(=O)(=O)N2CCOCC2)cc1,5,2,5397,-3,-0.6,-4,11
COc1cccc(/C=N/NC(=O)CCNc2n[nH]c(=O)[nH]c2=O)c1OC,x,1,4132,-32,x,x,x
CC(C)CCNc1nc(N2CCCC2)c2c(c1C#N)CCN(C)C2,-27,-10,4707,-17,1.8,25,22
COc1ccc(NC(=O)CCC(=O)N2CCN(S(=O)(=O)c3ccc(C)cc3)CC2)c(OC)c1,7,4,5978,-16,2.0,1,-2
C[C@H](CO)N1C[C@H](C)[C@@H](CN(C)C(=O)Nc2ccccc2)Oc2ccc(NC(=O)C3CCCCC3)cc2C1=O,-8,x,3751,-8,-15,-3,12
COc1ccccc1NC(=O)N1CCCC1C(=O)Nc1ccc2c(c1)OCO2 (stereo not drawn),3,-3,3184,-16,-0.1,7,-8
Nc1cc(=O)[nH]c(SCC(=O)Nc2ncc(C(F)(F)F)cc2Cl)n1,3,-13,2364,-15,3.9,9,-5
CC(C)[C@@]1(NC(=O)C2CC3c4cccc5[nH]cc(c45)CC3N(C)C2)O[C@@]2(O)C3CCCN3C(=O)C(Cc3ccccc3)N2C1=O (stereo partly drawn),-10,x,x,x,1.8,-4,-5
Cc1cc(C)c2c(=O)n(CC(=O)Nc3cccc(F)c3)sc2n1,1,15,3912,-27,14,-2,-1
COc1ccccc1C1SCCN1C(=O)c1ccc([N+](=O)[O-])cc1 (stereo not drawn),x,1,2519,-16,x,x,x
CCCCC(=O)N1CCN(c2nc3ccc(F)cc3s2)CC1,7,12,4100,-38,2.7,-1,4
COc1ccc2nc(-c3ccccc3)cc(C(=O)OCC(=O)N3CCCCC3)c2c1,-3,x,3719,-3,-0.7,4,-1
Cc1ccc(CN(C)C(=O)c2cccc(S(=O)(=O)N3CCN(c4ccccc4)CC3)c2)cc1,5,x,3457,-15,4.5,-4,-3
COc1cc(OC)cc(C(=O)OC/C(O)=C(\C#N)c2nc3ccccc3[nH]2)c1,9,5,5377,-22,3.2,-6,0
CCOC(=O)c1sc(=S)n(C)c1NC(=O)c1ccccc1,2,-2,10788,-36,5.5,-5,2
O=S(=O)(c1ccc(NC(=S)NCCC(c2ccccc2)c2ccccc2)cc1)N1CCOCC1,-18,-2,2251,-8,-9.0,-3,4
COC(=O)C1=C(c2ccc(OCc3ccccc3)cc2)CC2CCC1N2C(=O)NCCCc1ccccc1 (stereo not drawn),4,x,x,x,-4.6,7,4
COc1ccc(C=NNC(N)=S)cc1,2,x,x,x,4.2,x,x
O=C1NCC(Cc2ccccc2)N(CC2CCCCC2)C1=O (stereo not drawn),-2,x,x,x,8.0,7,3
CCOC(=O)Nc1ccc2c(c1)nc1n2CCN(CCOC)C1,0,3,3674,-10,-0.6,-9,-14
O=C(Nc1ccc(NC(=S)NC(=O)c2ccccc2F)cc1)c1cccs1,76,-8,5003,-9,3.7,x,x
CCCOC1CCCN(C(=O)c2ccc(OC3CCN(C(=O)COC)CC3)cc2)C1 (stereo not drawn),-6,2,4642,-11,-3.4,1,-7
CC1CCN(c2nc(-c3ccccc3O)nc3ccccc23)CC1,-8,-1,10050,-22,-8.9,12,10
COc1ccc(Nc2cc(Nc3cccc(OC)c3)ncn2)cc1,16,7,3853,-21,0.6,7,1
CC(=O)c1ccc(N2CCCC2)c(F)c1,5,9,x,x,9.5,x,x
COc1cccc(/C=N/NC(=O)C(=O)NCc2cccnc2)c1O,x,-12,2144,-16,x,x,x

# Among those listed so far, these contain a CF3 group:
SMILES,ugtP null kill,BJeLR viability,Autofluor counter,PrP UTR inh,RN4220 kill,Mtb hypoxia inh,Mtb hypoxia inh growth
O=C(COC(=O)/C=C/c1cccc(C(F)(F)F)c1)NC(=O)NC1CCCC1,2,x,4062,-45,0.7,6,-1
Nc1cc(=O)[nH]c(SCC(=O)Nc2ncc(C(F)(F)F)cc2Cl)n1,3,-13,2364,-15,3.9,9,-5

# Bioassay records deposited in PubChem BioAssay by several laboratories.
